Screening results deposited in PubChem BioAssay by several laboratories.
FGF22 binding: binders of human FGF22 protein, primary screen, FGF22 synaptogenesis inhibitor project, biophysical, thermal shift, single point; Fibroblast growth factor 22 (Homo sapiens), Q9HCT0; recombinant FGF22 thermal shift, SYPRO orange fluorescence; percent of sucrose octasulfate shift, DMSO zero; calls only at 9.99 µM; hit rate 1.5% among 340,000; AID 651658, 2012;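 active means melting point raised past a set limit in the mean and every replicate; three in four hits are not shown here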
Target sequence (Q9HCT0 whole entry, looked up): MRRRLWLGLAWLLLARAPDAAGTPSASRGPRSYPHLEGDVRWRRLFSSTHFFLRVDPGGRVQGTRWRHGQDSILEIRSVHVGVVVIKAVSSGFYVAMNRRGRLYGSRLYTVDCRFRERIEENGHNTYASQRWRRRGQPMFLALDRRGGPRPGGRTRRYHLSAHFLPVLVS
Ecoli growth: E. coli growth inhibition, primary screen, OD600; hit rate 0.21% among 330,000; OD600 absorbance (no concentration beside the values); Escherichia coli growth, 23 h; hits give low values; AID 1053175, 2014;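 active means OD600 absorbance below the run mean of sample wells minus 3.6 SD, in any replicate, cut at about 0.56 in these data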;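 further: stock transfer was 300 nL into about 60 µL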
MLL AF4-AF9 inh: inhibitors of AF4 peptide binding to AF9, primary screen, biochemical, AlphaScreen, biotin-AF4 peptide, FLAG-AF9, single point; Protein AF-9 (Homo sapiens), P42568; inhibition, % at 10 µM; hit rate 0.47% among 350,000;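 active means every replicate reaching a set inhibition limit, whatever the replicate mean, cut at about 25% in these data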;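 further: 0% = plate neutral control median and 100% = total signal loss; the record names both 10 and 1 µM as test concentration; the first replicate is given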
Target sequence (P42568 whole entry, looked up): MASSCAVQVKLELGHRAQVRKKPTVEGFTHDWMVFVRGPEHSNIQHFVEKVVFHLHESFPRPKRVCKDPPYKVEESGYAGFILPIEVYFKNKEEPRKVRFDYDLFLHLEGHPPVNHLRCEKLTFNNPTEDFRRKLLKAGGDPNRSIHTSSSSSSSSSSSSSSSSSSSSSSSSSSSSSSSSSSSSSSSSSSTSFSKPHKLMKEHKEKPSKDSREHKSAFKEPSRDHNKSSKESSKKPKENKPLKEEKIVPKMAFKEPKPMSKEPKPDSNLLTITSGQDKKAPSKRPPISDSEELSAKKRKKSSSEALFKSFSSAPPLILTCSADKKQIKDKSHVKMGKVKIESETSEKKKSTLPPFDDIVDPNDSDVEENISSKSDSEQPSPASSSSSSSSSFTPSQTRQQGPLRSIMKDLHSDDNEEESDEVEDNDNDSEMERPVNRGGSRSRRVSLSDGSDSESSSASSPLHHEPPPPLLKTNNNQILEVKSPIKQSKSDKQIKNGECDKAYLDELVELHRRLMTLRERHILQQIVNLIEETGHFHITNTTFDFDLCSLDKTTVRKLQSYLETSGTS
rRNA inh HTS: reduced GFP signal of wild-type E. coli, primary screen, bacterial rRNA inhibitor project, GFP/RFP fluorescence, OD600, single point; E. coli WT GFP vs humanized-ribosome RFP mutants, 24 h; hits give low values; DMSO median 0, no signal -100; GFP signal change (wild-type ribosome), % (no concentration beside the values); hit rate 1.6% among 350,000;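 active means significant combined selectivity score with lowered wild-type GFP, culture density cut under 30%, mutant RFP and density less affected; inactive means any of these conditions unmet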; further: one replicate is shown; some compounds called inactive have numbers as strong as hits
Vif TR-FRET: inhibitors of Vif binding to APOBEC3G peptide, primary screen, biochemical, TR-FRET, GST-Vif 1-94, biotin-A3G peptide, dose response retest (AID 1117319); Virion infectivity factor (Human immunodeficiency virus type 1 group M subtype B (isolate …; TR-FRET GST-Vif / biotin-A3G peptide binding; higher % means a stronger effect; test concentration not given here; strong numbers were not always called active; inhibition, %, or IC50 in µM where a hit was titrated; hit rate 0.57% among 260,000;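 active means above the screen mean plus three standard deviations and confirmed in dose response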;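 further: Vif residues 1-94 fused to GST binding biotinylated APOBEC3G peptide 110-148; 0% = full assay without inhibitor and 100% = GST in place of GST-Vif; retest series ran down from 100 µM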
ALR H2O2 inh: inhibitors of human ALR sulfhydryl oxidase, primary screen, biochemical, H2O2 detection, HRP-luminol luminescence, single point. FAD-linked sulfhydryl oxidase ALR (Homo sapiens), P55789. purified ALR, DTT oxidation. inhibition, % (concentration not given with the values). hit rate 3.8% among 290,000;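 active means mean and each replicate at 75% or more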;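 further: stock transfer was 7.5 nL into about 7.5 µL; 0% = neutral wells and 100% = wells with inactivated enzyme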
Target sequence (P55789 whole entry, looked up): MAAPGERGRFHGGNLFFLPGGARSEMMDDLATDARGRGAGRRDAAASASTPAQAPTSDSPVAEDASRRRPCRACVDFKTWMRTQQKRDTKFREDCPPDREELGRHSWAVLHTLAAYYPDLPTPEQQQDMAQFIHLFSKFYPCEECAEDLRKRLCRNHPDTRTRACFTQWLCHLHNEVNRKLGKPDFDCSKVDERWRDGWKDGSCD
HNF4A DNA FP: change in binding of human HNF4A to DNA, primary screen, biochemical, fluorescence polarization, FITC-DNA; Hepatocyte nuclear factor 4-alpha (Homo sapiens), P41235; 1 h; activity change, % at 10 µM; hit rate 0.3% among 360,000; AID 1224865, 2016; in the data active means activity change above about 30%, passing the limit was not always enough;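 further: controls were the assay level and a saturating level of protein; the project sought stronger binding though the title names inhibitors; some compounds called inactive have numbers as strong as hits; positive values seem to mean higher polarization but the record does not say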
rRNA inh HTS OD600: recorded beside rRNA inh HTS, whose call it bears; OD600 change, %; measured here: OD600 growth;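 optical density of the mix in the first replicate; 0 = DMSO median and -100 = no signal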
rRNA inh HTS RFP: further read-out of rRNA inh HTS, marked with its call; RFP signal change, %; measured here: RFP humanized mutant strains;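 first replicate; 0 = DMSO median and -100 = no signal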
The depositor's hits bear a star; i = inactive; . = not tested or not shown. An excerpt. The share of hits here may be higher or lower than overall.

SMILES	FGF22 binding	Ecoli growth	MLL AF4-AF9 inh	rRNA inh HTS	rRNA inh HTS OD600	rRNA inh HTS RFP	Vif TR-FRET	ALR H2O2 inh	HNF4A DNA FP
O=C(/C=C/c1ccccc1)c1ccc2ccccc2c1	i	0.7	0.8	-8	-36	1.6	-10%	.	3.0
O=S(=O)(NCC1CCCO1)c1ccc(Cl)nc1 (centres undefined)	i	0.69	-8.1	5	-2	3.3	19%	-1	2.6
Cc1ccccc1NC(=O)CN1C(=O)S/C(=C\c2ccc(-c3cccc(C(=O)O)c3C)o2)C1=O	i	.	-0.6	17	10	0.4	.	-11	6.4
Cc1c(N2CCCC2)cc2c(c1N)C(C)(C)CC2(C)C	i	0.66	6.9	8	9	-4.6	4%	-37	2.9
OCCN1CCN(C(=S)NCCc2ccccc2)CC1	.	0.71	.	.	.	.	19%	7	0.4
Cc1cc(OCCOc2cccc3cccnc23)c(C)cc1Cl	.	0.72	.	.	.	.	-8%	-5	-4.0
CON(C)C(=O)CC(CNC(=O)OC(C)(C)C)c1ccc(Cl)cc1 (centres undefined)	i	0.79	-0.5	12	11	3.8	.	-4	-2.9
O=C(O)CCCCCCCCCCC1CCC(O)C1O (centres undefined)	i	0.67	-6.4	-1	-4	-1.4	-5%	.	2.6
CCn1ncc(CN2CCC(C(=O)Nc3cccc(-c4cccc(F)c4)c3)CC2)c1C	i	0.66	4.0	4	-1	3.4	.	-21	3.4
COc1ccc(C(CNC(=O)c2cccc(S(=O)(=O)Nc3ccc(F)cc3)c2)N2CCCC2)cc1 (centres undefined)	i	0.67	7.7	-9	-14	-1.2	-3%	.	5.1
O=C(OCC(=O)N1CCCc2ccccc21)C1CCN(S(=O)(=O)c2cccs2)CC1	.	0.79	.	.	.	.	1%	-4	1.4
O=C(COc1ccc2c(c1)oc(=O)c1ccccc12)NCC1CCC(C(=O)O)CC1 (centres undefined)	i	0.8	-0.3	.	.	.	.	-8	0.4
Cc1cc(C)cc(NC2=NCC(=O)N2Cc2ccccc2)c1	.	0.74	.	.	.	.	2%	0	0.4
COc1ccc(/C=C/C(=O)O)cc1S(=O)(=O)NCC1CCCO1 (centres undefined)	i	0.69	-4.7	13	3	-2.8	1%	.	-2.5
CSc1ccc(S(=O)(=O)N2CCC(C(=O)NCc3ccncc3)CC2)cc1	i	0.72	-1.1	0	0	-4.2	.	24	-1.4
C[C@H](CO)N1C[C@H](C)[C@@H](CN(C)Cc2ccncc2)Oc2ccc(NC(=O)Cc3ccccc3)cc2CC1=O	i	.	2.4	0	1	-1.2	.	.	.
COc1ccccc1Cc1c(-c2ccc(C#N)cc2)nc2c3ccccc3ccn12	i	.	2.3	13	10	59	.	.	3.9
CC(C)OC(=O)NC(c1ccccc1)C(Cl)(Cl)Cl (centres undefined)	.	0.71	.	.	.	.	.	-4	3.1
Cc1ccc(NC(=O)Nc2ccccc2C(=O)NCc2ccccc2)cc1	.	0.78	.	.	.	.	10%	1	0.7
COc1ccc(CN2C(=O)C(CC(=O)NCCCN(C)C)CC(C(=O)N(C)C)=C2C)cc1 (centres undefined)	i	.	-0.3	5	9	-1.1	3%	.	-3.0
COc1cc2c(cc1OC)C(/C=C/c1ccco1)=NCC2	i	0.64	9.4	11	1	12	25%	.	-3.1
C[C@H](O)C#Cc1ccc([C@H]2[C@H](CO)N3CCCCN(C(=O)c4ccncc4)C[C@@H]23)cc1	i	.	0.2	5	-4	-9.0	.	.	.
Cc1cccc(OCC(=O)N2CCN(C(=O)COc3ccc(Cl)cc3)CC2)c1	i	0.7	-1.0	2	-5	0.1	.	-18	-0.2
CCCCOc1ccccc1C(=O)NCCCCCC(=O)O	.	0.72	.	.	.	.	-3%	-4	-3.5
Cn1cc(CCC(=O)NC2CC2)c2ccccc21	i	0.67	2.2	4	10	-0.6	2%	8	2.3

3 structures from above, arranged by length of the SMILES, low to high:
SMILES	FGF22 binding	Ecoli growth	MLL AF4-AF9 inh	rRNA inh HTS	rRNA inh HTS OD600	rRNA inh HTS RFP	Vif TR-FRET	ALR H2O2 inh	HNF4A DNA FP
OCCN1CCN(C(=S)NCCc2ccccc2)CC1	.	0.71	.	.	.	.	19%	7	0.4
Cc1cc(C)cc(NC2=NCC(=O)N2Cc2ccccc2)c1	.	0.74	.	.	.	.	2%	0	0.4
C[C@H](O)C#Cc1ccc([C@H]2[C@H](CO)N3CCCCN(C(=O)c4ccncc4)C[C@@H]23)cc1	i	.	0.2	5	-4	-9.0	.	.	.

Only rRNA inh HTS and Ecoli growth, for 2 of the compounds above:
smiles | rRNA inh HTS | Ecoli growth
Cc1cc(C)cc(NC2=NCC(=O)N2Cc2ccccc2)c1 | . | 0.74
O=S(=O)(NCC1CCCO1)c1ccc(Cl)nc1 (centres undefined) | 5 | 0.69

Among those listed so far, 2 have two or more sulfur atoms:
SMILES	FGF22 binding	Ecoli growth	MLL AF4-AF9 inh	rRNA inh HTS	rRNA inh HTS OD600	rRNA inh HTS RFP	Vif TR-FRET	ALR H2O2 inh	HNF4A DNA FP
O=C(OCC(=O)N1CCCc2ccccc21)C1CCN(S(=O)(=O)c2cccs2)CC1	.	0.79	.	.	.	.	1%	-4	1.4
CSc1ccc(S(=O)(=O)N2CCC(C(=O)NCc3ccncc3)CC2)cc1	i	0.72	-1.1	0	0	-4.2	.	24	-1.4

More entries:
SMILES	FGF22 binding	Ecoli growth	MLL AF4-AF9 inh	rRNA inh HTS	rRNA inh HTS OD600	rRNA inh HTS RFP	Vif TR-FRET	ALR H2O2 inh	HNF4A DNA FP
CCn1cc(C(=O)O)c(=O)c2cnc(N3CCN(C(=S)NC(=O)c4ccc(F)c(F)c4)CC3)nc21	i	0.58	-2.6	-52	-76	-24	2%	.	-5.1
O=C(Nc1ccc(CN2CCCCC2)cc1)Nc1ccc(Br)cc1Cl	.	0.6	12	.	.	.	1%	12	0.9
O=C(C[C@@H]1C[C@@H]2c3cc(NS(=O)(=O)c4ccc(F)cc4)ccc3O[C@@H]2[C@H](CO)O1)NCc1ccccc1	i	.	-1.0	-6	-14	0.3	.	.	.
COc1ccc(S(=O)(=O)N2CCCC(C(=O)N3CCOCC3)C2)cc1OC (centres undefined)	i	0.66	-0.3	9	6	0.7	.	-7	3.8
O=C1COc2ccc(S(=O)(=O)N3CCCCC3)cc2N1	i	0.7	-15	1	0	-1.4	.	-10	3.0
Oc1cccc(C(=S)N2CCC(Cc3ccccc3)CC2)c1	i	0.68	0.4	-52	-80	-19	.	2	1.2
CO[C@H]1CN(C)C(=O)c2cc(NC(=O)c3ccccc3F)ccc2OC[C@@H](C)N(CC2CC2)C[C@H]1C	i	.	-1.3	2	7	0.6	.	.	.
O=C(Cc1ccccc1)N1C[C@@H]2[C@H](c3ccccc31)[C@H](CO)N2C(=O)Cc1ccccc1	i	.	0.0	-2	-4	0.4	.	.	.
COc1ccc(-n2c(=S)[nH]c3cc(C(=O)NCc4cccnc4)ccc3c2=O)cc1	i	0.67	-2.0	13	12	-0.8	-2%	10	2.7
Cc1ccc(S(=O)(=O)NC(CC(=O)NCc2ccco2)c2ccco2)cc1 (centres undefined)	.	0.65	.	.	.	.	3%	-5	-1.7
CCc1ccccc1S(=O)(=O)Cc1ccc(C(=O)NCC2CCCO2)o1 (centres undefined)	.	0.7	.	.	.	.	-7%	-5	1.5
O=C(NCC[C@H]1CC[C@H](NS(=O)(=O)c2ccccc2)[C@H](CO)O1)c1ccc2c(c1)OCO2	i	.	-2.5	-5	-9	-0.7	.	.	.
Cc1ccc(OCc2nnc(SCC(=O)N3CCOCC3)n2C)cc1	.	0.65	.	.	.	.	-6%	8	2.7
COCCN(C(=O)CNC(=O)c1ccco1)C(C(=O)NC1CCCCC1)c1cccs1 (centres undefined)	.	0.7	.	.	.	.	16%	-5	0.4
Cc1ccc(S(=O)(=O)NC2CC(C)(C)NC(C)(C)C2)cc1C	i	.	-2.9	9	6	-0.7	-3%	1	-0.1
Cn1c(Cc2ccc3c(c2)OCO3)nnc1SCC(=O)NC1CCCC1	i	0.7	-1.0	9	-8	-7.3	13%	.	.
NS(=O)(=O)c1ccc(N/N=C/c2ccc(C(=O)O)cc2)c([N+](=O)[O-])c1	i	.	8.4	7	-3	2.6	-1%	-5	-3.6
CCN(c1ccccc1)S(=O)(=O)c1ccc(C(=O)NC2CCCCC2)cc1	i	.	3.4	-10	-41	-6.1	-2%	.	3.0
O=C(CCCN1C(=O)c2cccc3cccc(c23)C1=O)NCc1ccco1	i	0.67	-1.1	12	0	2.6	.	22	0.9
COc1ccc(NC(=O)CC(Cc2ccc(Cl)cc2)C(=O)O)cc1 (centres undefined)	i	0.63	-9.5	0	-1	-3.4	.	.	-2.2
COc1ccc(Cc2c(N)nc(C)nc2N)cc1	i	0.64	-1.8	2	-5	-5.6	13%	1	-2.4
CCNC(=O)C[C@H]1CC[C@@H]2[C@H](COC[C@H](O)CN2C(=O)c2cccnc2)O1	i	.	-1.7	-3	-4	-3.9	.	.	.
Cc1ccccc1NC(=S)N1CCCCCC1	i	0.69	-0.4	4	4	0.2	-5%	-15	3.1
NC(=S)NN=C1c2cc(OCCN3CCOCC3)ccc2-c2ccc(OCCN3CCOCC3)cc21	i	0.68	12	-15	-9	-1.6	.	6	1.3
CCOC(=O)[C@H]1[C@H]2COc3ccccc3[C@@H]2N2C(=O)c3cc(C)ccc3NC(=O)[C@@]12C	i	.	11	-7	-10	-3.1	.	.	-2.3
Additional results
SMILES	FGF22 binding	Ecoli growth	MLL AF4-AF9 inh	rRNA inh HTS	rRNA inh HTS OD600	rRNA inh HTS RFP	Vif TR-FRET	ALR H2O2 inh	HNF4A DNA FP
Cc1ccc(S(=O)(=O)N(C)C[C@H]2Oc3c(NS(=O)(=O)c4c(C)noc4C)cccc3C(=O)N([C@@H](C)CO)C[C@H]2C)cc1	i	.	0.4	-1	-13	4.0	.	.	.
Nc1nnc(SCC(=O)c2ccc([N+](=O)[O-])cc2)s1	i	0.71	-2.6	5	5	-2.7	-1%	98*	0.1
N#C[C@H]1[C@@H](c2ccccc2)[C@H](CO)N1C(=O)CN1CCOCC1	i	.	-1.0	2	19	3.9	.	.	.
C1=CCC(/C=N/n2cnnc2)CC1 (centres undefined)	.	.	.	.	.	.	-5%	-32	-0.2
C[C@H](CO)N1C[C@H](C)[C@H](CN(C)S(=O)(=O)c2ccc(F)cc2)Oc2ccc(NC(=O)c3ccncc3)cc2CC1=O	i	.	-0.4	-4	-9	0.4	.	.	.
O=C(Nc1ccccc1)N1CCCCN2[C@@H](CO)[C@H](c3ccc(C#CC4CC4)cc3)[C@@H]2C1	i	.	15	-41	-65	-1.3	.	.	.
NS(=O)(=O)c1ccc(CNC(=O)C2CCCCC2)cc1	.	0.71	.	.	.	.	4%	-9	2.9
Cc1ccc(S(=O)(=O)N(C)C[C@@H]2Oc3ccc(NC(=O)Nc4ccc(C(F)(F)F)cc4)cc3C(=O)N([C@H](C)CO)C[C@@H]2C)cc1	i	.	-1.1	3	12	4.2	.	.	.
Cc1ccccc1NC(=O)Cn1nnc(C(=O)NCc2ccco2)c1N	i	0.72	-2.4	20	11	6.6	.	-7	3.0
